Six1-Eya2 inh – blocks human Six1 binding to Eya2; AlphaScreen GST-Six1/His-Eya2 binding, biochemical; hits give low values; control for the full effect not named in the record; 360,000 compounds, 0.56% hits; activity change, % (test concentration not listed); AID 651725; in the data active = activity change below about -65%; inconclusive = about -30% to -65%; inactive = above about -30%; note: % is set by controls: 0 for no effect and ±100 for the full control effect
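AlphaScreen luminescence read after one hour at 37 °C in darkness. Pin-transferred compounds met GST-Six1 and His-Eya2 protein (5X stock 250 nM/500 nM) plus glutathione donor and Ni-chelate acceptor beads (5X, 50 ug/mL).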
TRPML1 blocker – inhibitors of human TRPML1 channel; Q9GZU1; TRPML1-inducible cells, Ca2+ dye fluorescence, FDSS; hits give low values; inhibition of EC80 agonist-evoked calcium signal; activity change, negative = inhibition, % (no concentration beside the values); 390,000 compounds, 0.02% hits; in the data active means activity change below about -50%; inconclusive means about -30% to -50%; inactive means above about -30%;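 note: stimulus is agonist 54-4 at its EC80 concentration; % is set by controls: 0 for no effect and ±100 for the full control effect; compound concentration not given in the record; the text of the record puts the active cut at -80%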
Target sequence (Q9GZU1 whole entry, looked up): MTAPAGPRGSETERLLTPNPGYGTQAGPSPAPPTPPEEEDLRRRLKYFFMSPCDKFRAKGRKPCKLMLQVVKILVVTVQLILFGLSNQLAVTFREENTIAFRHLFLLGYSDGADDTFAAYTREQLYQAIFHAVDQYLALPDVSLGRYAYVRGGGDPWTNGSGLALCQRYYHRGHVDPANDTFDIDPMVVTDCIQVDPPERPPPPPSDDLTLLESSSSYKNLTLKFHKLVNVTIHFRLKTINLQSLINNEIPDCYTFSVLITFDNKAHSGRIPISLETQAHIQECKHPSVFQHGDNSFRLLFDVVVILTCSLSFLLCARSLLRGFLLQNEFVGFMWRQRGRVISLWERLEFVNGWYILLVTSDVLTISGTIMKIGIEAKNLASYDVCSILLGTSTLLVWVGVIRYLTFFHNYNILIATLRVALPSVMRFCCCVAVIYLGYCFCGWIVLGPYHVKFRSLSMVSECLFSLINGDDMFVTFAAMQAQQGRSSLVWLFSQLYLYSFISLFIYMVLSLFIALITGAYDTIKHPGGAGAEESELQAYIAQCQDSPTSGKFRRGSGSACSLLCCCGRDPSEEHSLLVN
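Calcium fluorescence in TRPML1-DL cells induced overnight with Tet: a 110 s read after compound pin addition, then a 110 s antagonist read after challenge with 54-4 at 4 uM final (EC80).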
TRPML1 agonist – agonists of human TRPML1 channel. Q9GZU1. activation, % (test concentration not listed). AID 624414. 410,000 compounds, 0.12% hits. TRPML1-expressing cells, Ca2+ dye fluorescence, FDSS; host cell line not named in the record; reference of the full effect not given here; in the data active = activation above about 50%; inconclusive = about 30% to 50%; inactive = below about 30%; note: 0% is about no effect; the text of the record puts the active cut at 80%
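Tetracycline-induced TRPML1-DL cells are seeded and incubated overnight before loading with a no-wash Ca2+ dye and quencher. Agonist activity is taken from the 110 s fluorescence read following compound pin-transfer on an FDSS, before EC80 54-4 challenge.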
D2 potentiator – positive allosteric modulators of human D2 dopamine receptor | P14416 | DiscoveRx D2 beta-arrestin cells, luminescence, 90 min; 100% = 57 uM dopamine signal | potentiation, % (no concentration beside the values) | 360,000 compounds, 0.23% hits; active = potentiation of 50% or more; inconclusive = 30% to 50%; inactive = 30% or less;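 note: compound concentration not given in the record; tested on top of an EC20 dose of dopamine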
Target sequence (P14416 whole entry, looked up): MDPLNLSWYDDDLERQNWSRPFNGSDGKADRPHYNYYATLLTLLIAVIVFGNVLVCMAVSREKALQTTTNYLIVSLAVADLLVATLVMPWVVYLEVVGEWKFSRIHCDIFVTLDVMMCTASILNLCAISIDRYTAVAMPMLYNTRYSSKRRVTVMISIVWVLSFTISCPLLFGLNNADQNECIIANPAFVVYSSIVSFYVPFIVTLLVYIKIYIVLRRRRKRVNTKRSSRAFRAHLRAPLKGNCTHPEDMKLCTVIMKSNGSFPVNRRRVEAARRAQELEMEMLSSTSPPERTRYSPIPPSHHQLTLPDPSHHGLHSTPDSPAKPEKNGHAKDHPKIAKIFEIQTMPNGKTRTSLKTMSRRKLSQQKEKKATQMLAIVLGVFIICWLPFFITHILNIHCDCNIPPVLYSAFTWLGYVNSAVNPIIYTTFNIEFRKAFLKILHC
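PathHunter beta-arrestin assay in DiscoveRx D2 cells. Compounds were added with an EC20 of dopamine (50 nM final) for 90 min at 37 deg C. Luminescence was read 1 h after detection reagent, with 57 uM dopamine as the EC100 control.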
D2 ag – agonists of human D2 dopamine receptor (beta-arrestin); DiscoveRx PathHunter D2 beta-arrestin, luminescence, 90 min; 100% = 57 uM dopamine signal; activation, % (no concentration beside the values); 360,000 compounds, 0.084% hits; in the data active = activation above about 40%; inconclusive = about 15% to 40%; inactive = below about 15%; note: compound concentration not given in the record; the text of the record calls up to 30% inactive
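Agonist mode: compounds alone added to overnight-plated D2 PathHunter cells for 90 min at 37 C, with 57 uM final dopamine (EC100) defining full response. Beta-arrestin recruitment detected by chemiluminescent reagent, read after 1 h at ambient temperature.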
PINK1 modulator – changes PINK1 expression. PINK1 immunofluorescence, high-content cytometry, 24 h. Potency, µM (top dose mostly 76.6 µM), inactives show top-dose activation (PINK1 increase), most hits filed as activators. 410,000 compounds, 0.2% hits; active = well fitted activation curve with a large enough effect; inconclusive = small, poorly fitted or top-dose-only effect; inactive = flat fitted curve, though single readings scatter; cell line not stated here;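 note: potency is the fitted concentration of half-maximal effect; % of control where 0% means no effect; nearly all actives have a fitted effect of over 65% in size; a mitochondrial uncoupler was the plate control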
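Fluorescence from anti-PINK1 antibody, together with nuclear and cell stains, was scanned on a laser-scanning cytometer. Before staining, stable-line cells were incubated 24 hours with compounds at 5 concentrations; primary antibody 12 h at 10 degrees C.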
An asterisk follows results filed as active; ? = inconclusive; · = not tested or not shown; [ ] = another dose, or the depositor's remark.

SMILES	Six1-Eya2 inh	TRPML1 blocker	TRPML1 agonist	D2 potentiator	D2 ag	PINK1 modulator
CCc1ccc(C(C)NC(=O)C2(C)CC2(Br)Br)cc1 (stereo unspecified)	4	-2	-0.6	-3	-3.2	1.0%
Cc1ccc(-c2nn(-c3ccccc3)cc2NC(=O)c2ccccc2)cc1	3	33	0.0	-5	-3.2	6.1%
Cc1cccc(CCN(Cc2cc3cccc(C)c3[nH]c2=O)C(=O)N2CCOCC2)c1	-3	3	-0.2	3	-5.2	-2.9%
CC1CN(C(=O)c2cccn(Cc3c(Cl)cccc3Cl)c2=O)CC(C)O1 (stereo unspecified)	-9	-7	-0.4	-10	-4.7	-0.4%
CCc1ccc(-n2c(Cc3ccccc3)n[nH]c2=S)cc1	5	45	-1.2	-16	-0.5	0.2%
CCC(=O)N1CC2(C)CN(C(=O)CC)CC(C)(C1)C2	2	2	3.5	-8	-2.0	0.3%
COc1ccc(N(CCC(=O)Nc2ccccc2F)S(=O)(=O)c2ccc(C)cc2C)cc1	-5	-4	0.7	-24	-5.9	0.7%
CCOC(=O)C1Nc2ccc(C(F)(F)F)cc2C2C=CCC12 (stereo unspecified)	-6	0	0.0	0	3.8	1.5%
CC(C)(C)NC(=O)c1cccc(NC(=O)Cc2cccs2)c1	-14	-11	-0.5	-5	0.9	1.8%
O=c1c2ccccc2ncn1-c1ccc([N+](=O)[O-])cc1Cl	-1	32	0.2	-4	8.2	-0.5%
CCN(CC)S(=O)(=O)c1ccc(OC)c(NC(=O)c2cc([N+](=O)[O-])ccc2N2CCOCC2)c1	-3	-7	-1.0	-4	0.0	-0.1%
COc1ccc(S(=O)(=O)N2CCCCC2)cc1NC(=O)COC(=O)c1ccco1	-14	-21	2.9	-14	-0.1	2.9%
CCOC(=O)c1cnc(SC)nc1Oc1cccc(NS(=O)(=O)c2ccc(Cl)cc2)c1	8	4	-0.3	1	-1.4	3.5%
Cc1ccc(CS(=O)(=O)c2ncn[nH]2)cc1	9	28	1.2	-5	2.7	-0.8%
O=C(NCCN1CCOCC1)c1cccc(S(=O)(=O)N2CCCCC2)c1	3	9	-0.2	-6	0.2	4.0%
C[C@]1(O)CC(=O)C=C[C@H]1Nc1ccccc1	?	-15	-0.5	2	0.7	23%
Cc1cc(=O)n2nc(N3CCC(C(=O)NC4CCCc5ccccc54)CC3)sc2n1 (stereo unspecified)	-10	-7	-0.6	-10	1.1	2.7%
O=C(c1cccc(F)c1)N1CCc2ccccc2C1	1	-1	0.4	-20	-8.1	-0.6%
CC(CC(=O)NC1CCSC1=O)c1ccccc1 (stereo unspecified)	1	4	-0.1	-7	-3.2	?
Cc1cccc(S(=O)(=O)c2cn(Cc3ccc(F)cc3)c3cc(N4CCCCC4)c(F)cc3c2=O)c1	·	6	3.9	·	·	6.1%
CC(C)c1ccc(/C=N/NC(=O)CC(=O)NCc2ccccc2)cc1	3	-8	1.8	-14	1.0	-1.6%
CCOC(=O)C1CCCN(C(=O)c2cc3c(=O)n(C)c4ccccc4c3n2C)C1 (stereo unspecified)	-9	7	1.2	10	?	3.4%
CCNc1nc2cccnc2s1	7	5	-0.7	-13	-2.8	4.4%
Cc1ccc(NC(=O)CCS(=O)(=O)c2ccc(Br)cc2)c(C)c1	·	-8	0.6	·	·	2.3%
CCOc1ccc(C(C)=O)cc1COC(=O)c1ccccc1C(=O)N(C)Cc1ccccc1	6	10	1.3	10	-2.9	-0.9%
Next compounds:
SMILES	Six1-Eya2 inh	TRPML1 blocker	TRPML1 agonist	D2 potentiator	D2 ag	PINK1 modulator
CCc1ccccc1N1C(=O)c2cccc3c(N4CCOCC4)c([N+](=O)[O-])cc(c23)C1=O	?	-5	0.2	-24	-5.4	3.5%[38.3 µM]
Cc1c(Br)ccc(NC(=O)CCN2C(=O)C3C4CCC(C4)C3C2=O)c1C (stereo unspecified)	-1	25	0.2	4	-1.5	-0.8%
Nc1ncc([N+](=O)[O-])cc1Br	21	·	·	-5	-0.5	-0.5%
COC(=O)CNC(=O)N1CCN(S(=O)(=O)c2ccc3c(ccn3C)c2)CC1	·	-13	1.4	·	·	1.3%
Cc1ccc2nc(SCC(=O)Nc3ncccn3)[nH]c2c1	-5	1	0.3	-6	0.3	-0.2%
CCC(=O)N(CCC(c1ccc(C)cc1)c1ccco1)Cc1ccco1 (stereo unspecified)	-12	57	2.7	-2	2.0	7.6%
O=C(Cc1ccccc1F)Nc1ccc(S(=O)(=O)N2CCCCC2)cc1	3	8	-0.5	6	-0.4	1.4%
CCOC(=O)C(C)/C(C)=N/NC(N)=S (stereo unspecified)	-3	-12	0.7	-5	-1.4	1.3%
Fc1ccccc1Cn1nnc2c(-n3ccnc3)ncnc21	-1	6	-0.3	-1	-3.3	0.8%
Cc1ccc(-c2nn(-c3ccccc3)cc2/C=C/C(=O)OCC(=O)NC2CC2)o1	-1	3	0.6	-10	0.3	9.8%
CC(C)(CO)NC(=O)C(c1ccccc1)c1ccccc1	-1	7	-0.5	-6	0.3	4.4%[38.3 µM]
CCOc1ccc(C(=O)Nc2onc3c2CCCC3)cc1	·	-1	-0.6	·	·	-1.9%
O=C1c2[nH]c3ccccc3c2CC1N1C(=O)c2ccccc2C1=O (stereo unspecified)	1	17	-1.0	-2	-3.1	2.5%
CC(C)Oc1ccc(/C=N/NC(=O)C(CSCc2ccccc2)NC(=O)c2ccc([N+](=O)[O-])cc2)cc1 (stereo unspecified)	-15	2	7.7	0	-2.5	12%
C/C(=N\OC(=O)c1ccc(F)cc1)c1ccc(F)c(F)c1	17	-8	0.1	-5	2.1	-0.4%
CC(C)N(C(=O)CSc1nnc(NC(=O)c2ccco2)s1)C(C)C	6	-11	1.1	-2	-3.4	0.6%
C[C@@H]1CCCN1[C@@H]1CS(=O)(=O)N[C@H]1COCc1ccccc1	0	·	0.2	-3	-1.7	0.6%
Cc1cc(-c2ccccc2)nc(N/N=C/c2ccc(O)cc2O)n1	?	10	2.7	-2	-3.3	-1.7%
OC(COCc1ccccc1)CN1CCN(Cc2ccc3c(c2)OCO3)CC1 (stereo unspecified)	12	12	2.2	-23	-2.3	0.3%
CC(C)Oc1cc(F)ccc1-c1cc(C(=O)NCc2cccs2)[nH]n1	1	·	0.7	-14	-1.4	-0.8%
CCOC(=O)C1CCN(C(=O)c2cccc(S(=O)(=O)N3CCCc4ccccc43)c2)CC1	-15	-10	1.3	-8	-2.0	20%
O=C(NCCCN1CCCC1=O)c1ccc([N+](=O)[O-])s1	0	-1	-0.4	-10	7.7	1.3%
COc1cccc(-c2nnn(CC(=O)O)n2)c1	2	3	0.5	-9	0.4	?
Nc1nc(SCc2ccc3c(c2)OCO3)n[nH]1	2	12	3.1	-7	-1.8	-1.6%
COc1ccc(Cn2c(O)cc(=O)[nH]c2=O)cc1	-3	12	0.1	19	-6.6	1.5%

Whole records, looked up by structure. Order of values: Six1-Eya2 inh	TRPML1 blocker	TRPML1 agonist	D2 potentiator	D2 ag	PINK1 modulator
`CCC(=O)N1CC2(C)CN(C(=O)CC)CC(C)(C1)C2` reads 2	2	3.5	-8	-2.0	0.3%
`Cc1cc(=O)n2nc(N3CCC(C(=O)NC4CCCc5ccccc54)CC3)sc2n1` (stereo unspecified) reads -10	-7	-0.6	-10	1.1	2.7%
`O=C(NCCN1CCOCC1)c1cccc(S(=O)(=O)N2CCCCC2)c1` reads 3	9	-0.2	-6	0.2	4.0%
`C[C@]1(O)CC(=O)C=C[C@H]1Nc1ccccc1` reads ?	-15	-0.5	2	0.7	23%
`C[C@@H]1CCCN1[C@@H]1CS(=O)(=O)N[C@H]1COCc1ccccc1` reads 0	·	0.2	-3	-1.7	0.6%

The main list resumes, starting 2 compounds before the break.
SMILES	Six1-Eya2 inh	TRPML1 blocker	TRPML1 agonist	D2 potentiator	D2 ag	PINK1 modulator
Nc1nc(SCc2ccc3c(c2)OCO3)n[nH]1	2	12	3.1	-7	-1.8	-1.6%
COc1ccc(Cn2c(O)cc(=O)[nH]c2=O)cc1	-3	12	0.1	19	-6.6	1.5%
CCOC(=O)c1cc(C)n(CC2CCC(C(=O)Nc3ccc(Cl)cc3)CC2)c1C (stereo unspecified)	·	-12	0.1	·	·	1.3%
CCOC(=O)c1[nH]c(C)c(CCC(=O)N2CCN(c3cccc(OC)c3)CC2)c1C	·	-9	-0.3	·	·	-0.3%
COc1ccc(-c2cc(C(=O)N(C)Cc3cccc(OC)c3OC)c3ccccc3n2)cc1OC	-21	18	1.9	-11	?	-1.4%
CN(C(=O)c1cccc(NC(=O)Cc2ccc([N+](=O)[O-])cc2)c1)C1CCCC1	9	-1	0.5	-9	1.2	2.1%
CC(Sc1nc(-c2ccccc2)cc(C(F)(F)F)n1)C(=O)NCc1ccco1 (stereo unspecified)	0	8	4.1	-10	-3.2	5.9%
Cc1ccc(S(=O)(=O)N2C[C@@H]3[C@H]4CC[C@H](C4)[C@@H]3[C@@H](C)[C@@H]2c2cn(Cc3ccccc3)c3ncccc23)cc1	-12	24	0.3	·	-2.3	2.1%
CCCN(CCC)C(=O)C1CC(=O)OC12CCCCC2 (stereo unspecified)	1	29	0.6	1	1.7	-1.3%
COc1ccc(CN(CC(=O)NCc2ccco2)C(=O)CNS(=O)(=O)c2ccc(C)cc2)cc1	-10	-13	1.6	-4	1.8	-0.2%
Cc1cc(S(=O)(=O)NCc2ccccc2)ccc1OCC(=O)N1CCCC1	14	-10	-0.6	-24	0.2	0.4%
CC1(C(=O)NS(=O)(=O)c2cccc(C#N)c2)CCN1C(=O)C1(c2ccc(Cl)cc2)CCC1 (stereo unspecified)	5	3	0.6	-4	-1.1	0.6%
Cc1ccc(-c2nnc(Nc3ccccc3)c3ccccc23)cc1S(=O)(=O)N1CCOCC1	·	-10	-0.8	·	·	0.8%
C=CCC(C(=O)OC)(C(=O)OC)c1ccc(C(F)(F)F)cc1[N+](=O)[O-]	-2	-3	-1.2	5	3.7	-0.7%
CCC(C)C(=O)Nc1nc2ccc(OC)cc2s1 (stereo unspecified)	4	11	0.7	-7	0.1	0.2%
COc1cc(C(=O)OCCCc2cc3ccccc3c(=O)o2)cc(OC)c1OC	0	1	-1.4	2	2.2	-0.7%
Cc1cc(C(=O)Nc2ccc(C)c(C)c2)n(-c2ccccc2)n1	0	11	-1.7	-10	-3.2	3.1%
CCOc1ccc(NC(=O)CN(C)CC(=O)Nc2cc(Cl)ccc2C#N)cc1OCC	-1	16	0.8	-12	-0.8	0.7%
COc1ccc(Cl)cc1N(C(=O)c1ccco1)C(C(=O)NC1CCCC1)c1ccco1 (stereo unspecified)	-2	24	-0.8	-7	-0.3	0.1%
Cc1nnc(NC(=O)c2ccc(F)c(S(=O)(=O)N3CCCCC3)c2)s1	11	-10	0.5	-18	0.0	1.2%
Clc1ccc(-c2noc(CSc3nnc(-c4ccncc4)n3-c3ccccc3)n2)cc1	-12	15	1.3	-6	1.6	-1.6%[38.3 µM]
